Menin-MLL FL inh = menin-MLL binding inhibition, fluorescein peptide | Fluorescence polarization, fluorescein-MLL peptide displacement from menin | FP activity change, % at 61.4 µM | 290,000 tested, under 10 active | AID 1766; inconclusive = falling polarisation curve, or a change in total fluorescence; inactive = total fluorescence flat and polarisation flat or rising; no compound was filed as active; the % refers to the polarisation; negative = inhibition;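 further: % of control where 0% means no effect; inhibitors lower the polarisation; unlabelled MLL peptide was the positive control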
TRPML1 inh = blocks the human TRPML1 channel. 390,000 tested, 0.02% active. TRPML1-inducible cells, Ca2+ dye fluorescence, FDSS; active compounds read low; inhibition of EC80 agonist-evoked calcium signal. activity change, negative = inhibition, % (no concentration beside the values); in the data active means activity change below about -50%; inconclusive means about -30% to -50%; inactive means above about -30%;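 further: stimulus is agonist 54-4 at its EC80 concentration; on the % scale 0 is the no-effect control and ±100 the full control effect; compound concentration not given in the record; the text of the record puts the active cut at -80%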
Target sequence (Q9GZU1 whole entry, looked up): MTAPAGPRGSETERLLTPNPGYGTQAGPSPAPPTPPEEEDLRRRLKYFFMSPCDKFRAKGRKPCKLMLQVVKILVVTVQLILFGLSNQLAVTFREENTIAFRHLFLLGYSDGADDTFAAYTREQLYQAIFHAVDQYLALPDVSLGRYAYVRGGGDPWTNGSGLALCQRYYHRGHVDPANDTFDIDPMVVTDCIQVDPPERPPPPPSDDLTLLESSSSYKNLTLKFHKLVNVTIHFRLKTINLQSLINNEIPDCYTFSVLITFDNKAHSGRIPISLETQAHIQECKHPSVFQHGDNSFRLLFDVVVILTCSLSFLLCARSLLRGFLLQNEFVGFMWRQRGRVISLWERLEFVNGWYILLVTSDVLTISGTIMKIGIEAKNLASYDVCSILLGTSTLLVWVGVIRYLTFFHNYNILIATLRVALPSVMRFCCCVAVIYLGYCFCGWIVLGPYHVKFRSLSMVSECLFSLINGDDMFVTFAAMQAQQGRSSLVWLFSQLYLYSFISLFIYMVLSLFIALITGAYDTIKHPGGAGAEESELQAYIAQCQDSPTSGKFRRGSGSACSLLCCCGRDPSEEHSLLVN
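Calcium fluorescence in TRPML1-DL cells induced overnight with Tet: a 110 s read after compound pin addition, then a 110 s antagonist read after challenge with 54-4 at 4 uM final (EC80).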
Sfp inh = blocks B. subtilis Sfp PPTase activity. Q9F4F7. Biochemical Sfp PPTase activity, qHTS. Potency, µM, for the others: max response, negative = inhibition, actives largely listed as inhibitors. 310,000 tested, 3.5% active; active means well fitted inhibition curve with a large enough effect; inconclusive means small, poorly fitted or top-dose-only effect, or another doubt; inactive means no such curve, though single readings can be large or run the other way;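 further: the enzyme is Sfp with the accession as filed and its product quenches rhodamine fluorescence; potency means the concentration at half of the fitted maximal effect; 0% = enzyme reaction without inhibitor and -100% = no enzyme wells; top concentration of the series not given in the record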
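Step 1, compound plus 15 nM Sfp-PPTase, 15 min, room temperature. Step 2, add rhodamine-CoA (5 uM) and BHQ-2-YbbR (12.5 uM). Step 3, read 525/598 nm fluorescence at 0 and 30 min.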
TRPV1 PAM = human TRPV1 potentiation; Q8NER1; TRPV1-expressing cells, Fluo-8 calcium influx, capsaicin EC20 potentiation; host cell line not named in the record; control for the full effect not named in the record; potentiation, % at 8.33 µM; 320,000 tested, 0.02% active; AID 540277; active means potentiation above 80%; inconclusive means 30% to 80%; inactive means below 30%; further: 0% is about no effect
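TRPV1-expressing cells were cultured overnight at 35.5C and loaded with Fluo-8 calcium dye for 40 to 90 min at room temperature. After a 10 s baseline, compound was added and calcium influx was read kinetically for 3 min (ex 480/em 520 nm).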
ClpP mod = qHTS Assay for Activators of ClpP | ATP-dependent Clp protease proteolytic subunit (Bacillus subtilis (strain 168)), P80244 | purified B. subtilis ClpP, FRET peptide cleavage, 20 min | Potency, µM (top dose mostly 57.5 µM), inactives show top-dose activity change, negative = active | 340,000 tested, 1.9% active | AID 651965, 2013; active = well fitted falling curve with a large enough effect; inconclusive = small, poorly fitted or top-dose-only effect; inactive = no such curve, though single readings can be large or run the other way; further: potency means the concentration at half of the fitted maximal effect; the source files actives as falling curves though it sought activators and does not explain the sign; nearly all actives have a fitted effect of over 65% in size; many hits overshoot -100%
Target sequence (P80244 whole entry, looked up): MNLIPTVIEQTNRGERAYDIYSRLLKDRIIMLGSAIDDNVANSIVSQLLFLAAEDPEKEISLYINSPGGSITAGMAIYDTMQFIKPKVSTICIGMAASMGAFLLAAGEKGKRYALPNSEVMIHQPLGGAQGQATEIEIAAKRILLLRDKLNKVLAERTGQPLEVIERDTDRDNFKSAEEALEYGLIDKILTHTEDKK
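Buffer: 100 mM Tris/HCl pH8, 100 mM KCl, 0.05% low protease BSA, 2.5% glycerol, 0.01% Tween-20. ClpP 10 microg/mL final; 20 min RT; delta FRET normalized to ADEP and DMSO controls.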
TRPML1 ag = agonists of human TRPML1 channel | Q9GZU1 | TRPML1-expressing cells, Ca2+ dye fluorescence, FDSS; host cell line not named in the record; reference of the full effect not given here | activation, % (concentration not given with the values) | 410,000 tested, 0.12% active | AID 624414; in the data active = activation above about 50%; inconclusive = about 30% to 50%; inactive = below about 30%; further: 0% is about no effect; the text of the record puts the active cut at 80%
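Cells: TRPML1-DL, 1X Tet inducer, ~16 h at 37 degrees C/5% CO2. Dye: ABD Ca8 no-wash + quencher, 45-90 min RT. Read: 10 s baseline, compound add, 110 s agonist phase; 54-4 EC80 (4uM final), 110 s antagonist phase.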
PINK1 expr mod = PINK1 expression modulation | AID 624263 | PINK1 immunofluorescence, high-content cytometry, 24 h | Potency, µM (highest dose often 76.6 µM), for the others: top-dose activation (PINK1 increase), hits mostly activators | 410,000 tested, 0.2% active; active = well fitted activation curve with a large enough effect; inconclusive = small, poorly fitted or top-dose-only effect; inactive = flat fitted curve, though single readings scatter; cell line not stated here;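 further: potency means the concentration at half of the fitted maximal effect; % of control where 0% means no effect; nearly all actives have a fitted effect of over 65% in size; a mitochondrial uncoupler was the plate control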
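Measures PINK1 amount and localization on or inside mitochondria by immunofluorescence. Stable cells get compounds at 5 concentrations for 24 hours before fixation and staining; CCCP controls included.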
* hit, by the source's call; ? = inconclusive; . = not tested or not shown; & = joins results of further samples; [ ] = another dose, or the depositor's remark.

SMILES	Menin-MLL FL inh	TRPML1 inh	Sfp inh	TRPV1 PAM	ClpP mod	TRPML1 ag	PINK1 expr mod
COC(=O)c1cc(OC)nc(OC)c1	1.7	-1.3	14.8%	2.4	3.7%	-0.3	1.9%
c1ccc(-c2ccc3nncn3c2)cc1	.	.	.	.	-20.5%	-0.3	-1.2%
Cc1nc2cc(NS(=O)(=O)c3c(C)c(C)cc(C)c3C)ccc2s1	2.5	35.5	-4.3%	-3.8	2.4%	0.8	0.3%
O=C1CCC(CCC(=O)N2CCCC(C(=O)c3cccc(C(F)(F)F)c3)C2)=NN1 (stereo not given)	-0.5	-2.4	2.2%	0.6	.	0.1	5.3%
O=C(C[n+]1ccc(-c2nnc3n2CCC3)cc1)c1ccc(Cl)cc1	-2.4	21.6	-0.5%	6.3	31.6µM*	0.5	3.2%
CCN1C(=O)/C(=C/N(C)c2ccccc2)OC1=S	1.2	-4.9	-10.5%	-6.3	0.3%	1.1	15.5%[38.3 µM]
CC(NC(=O)Nc1ccc(Cl)c(Cl)c1)C(c1ccccc1)N1CCOCC1 (stereo not given)	-0.6	-1.1	1.8%	-37.9	-0.3%	2.4	?
CCOC(=O)N/C(N)=N/c1nc2ccccc2s1	4.7	3.6	-6.9%	-11.2	-1.8%	-0.1	.
Cn1cnnc1SCCNS(=O)(=O)c1ccccc1	?	26.3	0.2%	-19.7	-1.0%	-0.5	0.5%
Cc1ccc(C(=O)OCC(=O)c2c[nH]c3ccccc23)cc1S(=O)(=O)N1CCOCC1	.	-9.9	.	6.8	.	0.3	2.3%
CC[C@]12c3[nH]c4cc(-c5ccco5)ccc4c3CCN1C(=O)[C@@H](CC(=O)NCc1ccc(OC)c(OC)c1)C[C@@H]2C(=O)N1CCN(C(=O)c2ccco2)CC1	.	20.7	.	.	-13.0%	1.9	2.2%
O=C(CSc1ccc2nnc(-c3ccccn3)n2n1)Nc1ccc(F)cc1	.	9.8	15.4%	1.9	-0.8%	-0.4	1.5%
Cc1ccc(C(=O)N/C(=C/C=C/c2ccccc2)C(=O)NCc2ccco2)cc1	3.4	1.3	6.4%	-9.7	-5.1%	0.7	-2.7%
COc1ccc(S(=O)(=O)Nc2ccccc2)cc1OC	-0.9	-4.0	-7.7%	8.8	0.7%	-0.9	0.8%
O=S(=O)(NC1CCSc2ccccc21)c1ccc(Cl)nc1 (stereo not given)	-6.8	9.1	20.2%	29.5	.	0.4	0.3%
Cc1cc(C)c2cc(CN(Cc3nnnn3C3CCCCC3)CC3CCCO3)c(=O)[nH]c2c1 (stereo not given)	-0.4	-4.0	-13.3%	-1.4	-5.0%	1.3	-5.5%[38.3 µM]
O=C(O)c1cc(-c2ccccc2)nc2nc(N3CCCCC3)sc12	-0.5	.	8.3%	-6.4	.	.	.
O=C(O)c1cc([N+](=O)[O-])cc2c1C=Cc1ccccc1O2	-3.6	-14.3	2.8%	2.9	.	1.0	1.0%
Cc1cc(C(=O)NCc2ccccc2)no1	2.6	-15.0	11.2%	2.3	-0.1%	-0.1	16.4%[38.3 µM]
O=c1[nH]c(SCc2ccccc2)nc2[nH]ncc12	-5.9	-7.7	13.7%	9.3	.	0.0	1.6%
O=C(Nc1nnc(-c2ccc3c(c2)CCCC3)o1)c1c(F)cccc1F	0.8	10.7	22.5%	-12.3	.	0.1	0.6%
COc1cc(OC)cc(-c2nc(-c3ccccc3OC)no2)c1	4.1	8.1	-11.5%	-38.0	-12.2%	4.9	0.3%
O=C1NC[C@@H](CCCCN2CCN(Cc3ccccc3)C(=O)C2=O)N(CC2CCCCC2)C1=O	.	.	.	.	-1.1%	-0.6	-0.3%
Cc1cc(C)cc(NC(=O)N2CCCN(c3c(Cl)cncc3Cl)CC2)c1	1.6	-4.4	6.2%	2.4	.	-0.4	1.9%
COc1cc(-c2noc(-c3ccc(NC4CCCCC4)c([N+](=O)[O-])c3)n2)cc(OC)c1OC	.	27.8	.	.	0.7%	-0.4	3.2%
CCN(CCCNC(=O)CN1N=C(c2ccccc2)CCC1=O)c1cccc(C)c1	.	6.4	.	.	1.3%	-0.7	0.5%
Cc1nc2scc(-c3cccs3)c2c(=O)[nH]1	-0.6	-9.9	44.7µM*	4.2	-3.8%	-0.5	-5.7%[38.3 µM]
Cc1cc(C(=O)N(NC(=O)C(C)C)c2ccccc2)cs1	-2.5	10.7	10.7%	1.7	.	0.0	-1.8%
COc1ccc(-n2ccnc2SCC(=O)NCc2ccc3c(c2)OCO3)cc1	-0.4	-3.0	-2.8%	7.4	-4.5%	0.4	-2.0%
COn1c(=S)[nH]c2ccccc2c1=O	2.5	-17.4	-9.4%	-5.8	-1.9%	0.2	-0.5%[38.3 µM]
O=C(Nc1ccccc1C(=O)N1CCCCC1)c1cccc(S(=O)(=O)N2CCOCC2)c1	8.2	-2.3	2.1%	-0.3	-0.4%	0.1	-2.7%
CN(CCOc1ccc(Cl)cc1)CC(=O)Nc1ccc(OC(F)F)cc1	10.8	-0.7	-2.3%	-11.9	-3.1%	1.7	-0.1%
CCOC(=O)N1CCN(c2c(NCc3ccccn3)c(=O)c2=O)CC1	3.8	-3.9	16.2%	-12.2	-2.2%	-0.2	0.2%
CCC(=O)N1CCc2cc(Br)cc(S(=O)(=O)CCC(=O)N3CCN(c4cccc(C)c4)C(C)C3)c21 (stereo not given)	.	11.2	.	.	1.4%	-0.7	0.8%
COc1ccccc1-c1c(C)nn2c(N3CCC(C)CC3)cc(C)nc12	-0.2	4.1	2.2%	-1.6	.	1.2	10.1%
CCOc1ccc2nc(COC(=O)c3cccc([N+](=O)[O-])c3)c(C(C)=O)[n+]([O-])c2c1	0.7	-6.4	16.0%	-9.9	.	0.2	-0.1%
O=C1c2nccnc2C(=O)N1c1ccc(C(F)(F)F)cc1	-1.3	13.0	8.9%	-21.6	.	-0.4	0.2%
Cn1c(=O)c2c(ncn2CC(=O)N2CCCc3ccccc32)n(C)c1=O	3.9	-3.2	-1.8%	17.6	2.5%	0.7	3.0%
CCOc1ccc(S(=O)(=O)N2CCC(C(=O)NCCc3ccc(OC)c(OC)c3)CC2)cc1	6.6	-20.9	7.7%	24.6	-0.8%	-0.8	4.3%
CCOC(=O)c1ccc(NC(=O)CCNc2c(N3CCCC3)c(=O)c2=O)cc1	2.0	-10.7	-2.1%	-3.3	-2.0%	-0.5	7.2%
COc1ccccc1CN(Cc1ccco1)c1cnc(S(C)(=O)=O)nc1C(=O)Nc1cc(C)ccc1C	.	15.5	.	.	-2.6%	0.2	-0.4%
c1ccc(-n2nnnc2SCc2cn3cccnc3n2)cc1	-10.4	15.3	-4.2%	-0.5	25.1µM*	0.5	?
CCOC(=O)c1cnc2c(c(C)nn2C)c1Oc1cc(Cl)cc(Cl)c1	-5.9	2.6	11.0%	-14.1	1.1%	-0.5	21.8%
COc1ccc(Cl)c2sc(N(Cc3cccnc3)C(C)=O)nc12	.	17.4	6.7%	-7.3	1.9%	-0.4	0.5%
N#C/C(=C\c1ccc(OCc2cccc(C(=O)O)c2)cc1)C(=O)NCc1ccco1	2.4	-2.9	?	1.4	-3.1%	0.7	-0.4%
CNc1[nH]c(=O)[nH]c(=O)c1N=Nc1cc(Cl)ccc1Cl	.	10.4	.	.	-6.3%	-0.5	3.0%
COc1ccccc1C1N(c2cc(Cl)ccc2OC)C(=O)C2CCCN21 (stereo not given)	-1.1	17.9	18.9%	.	1.6%	0.6	1.8%
CSCCC(NC(=O)c1ccc(Cl)cc1Cl)C(=O)NNC(=O)c1ccncc1 (stereo not given)	.	17.8	.	8.8	-0.5%	-0.1	-2.2%
COC(=O)N1CCC2(CCCN(c3ccncc3)C2)CC1	0.8	.	17.4%	.	.	.	-0.1%
CC(=O)N[C@@H](C)c1nc2ccccc2n1CCNC(=O)[C@H]1CCCN1c1nc(CN2CCCCC2)cs1	-4.7	.	-0.5%	3.7	.	.	.

(cont.)
SMILES	Menin-MLL FL inh	TRPML1 inh	Sfp inh	TRPV1 PAM	ClpP mod	TRPML1 ag	PINK1 expr mod
COc1ccc(C2CC(=O)N(Cc3ccc(F)cc3)c3ccccc3S2)cc1OC (stereo not given)	.	-4.1	.	.	-0.2%	4.1	1.2%
COc1ccc(C2CC(=O)N3CN(Cc4ccco4)CSC3=C2C#N)cc1 (stereo not given)	1.3	-6.0	1.41µM*	2.9	28.9%	-0.2	0.3%
Cc1ccc([N+](=O)[O-])cc1S(=O)(=O)N1CCCCC1C(=O)O (stereo not given)	-0.4	13.4	7.5%	-5.4	.	0.0	1.1%
Cc1cccc(CSc2ncccc2C(=O)O)c1	-0.5	-8.1&-6.2	?	8.6	1.2%&-5.2%	-1.0&-0.1	0.6%&1.4%
O=C(CC(NC(=O)c1ccccc1)c1ccccc1)OCc1nc(-c2cccc(Cl)c2)no1 (stereo not given)	.	.	.	.	2.5%	-0.2	-0.6%
COc1ccc2[nH]cc(CCNC(=O)Nc3ccccc3)c2c1	4.6	17.0	5.1%	-20.8	?	1.1	0.2%&-0.2%
COc1ccc(S(=O)(=O)NCC(=O)O)cc1C(=O)NC1CCCCC1	-3.9	7.8	0.2%	1.8	1.1%	-0.4	0.8%
CCSc1nc(-c2ccccc2)c(C#N)c(=O)[nH]1	-0.9	7.7	10.2%	7.6	-3.3%	1.8	2.1%[38.3 µM]
COc1ccc2nc3c(cc2c1)c(NC(=O)CC(C)C)nn3CC(C)C	0.9	-10.3	4.0%	-14.3	-6.8%	0.9	7.5%
O=S(=O)(c1cnc(Cl)c(Cl)c1)N1CCN(c2ncccn2)CC1	-1.9	-1.9	14.5%	3.5	.	-1.0	7.1%
C=CCSc1nc2c(c(=O)[nH]c(=O)n2C)n1C(C)C	-0.5	27.0	?	-16.4	-1.3%	1.5	0.6%
CCOC(=O)Cn1nc(-c2ccc(F)cc2)cc(Cc2ccccc2)c1=O	-2.1	.	-3.6%	4.3	-3.5%	.	-0.3%
Cc1ccc(CN(Cc2ccco2)C(=O)c2ccc(Cl)cc2Cl)cc1	.	39.0	.	.	-1.1%	0.7	1.3%
CN(C)c1ccc(/C=C/c2ccnc3ccc(Br)cc23)cc1	.	.	.	.	2.3%	54.5*	6.4%
NC1=NC(=O)/C(=C/C=C/c2cccs2)S1	.	17.4	.	.	0.1%	0.3	1.8%
COc1ccc(C(=O)Nc2ccc3nc(SCC(=O)N4CCCc5ccccc54)sc3c2)cc1	.	8.0	.	.	?	2.4	-0.3%
CCc1c(C)sc(NC(=O)c2cccs2)c1C(N)=O	12.0	7.2	14.1µM*	-11.3	0.4%	0.9	.

Assay outcomes as filed in PubChem.

Rows were taken by chance (roughly 4.4% active in at least one column).
